# Menin MLL FP FL: inhibitors of human menin-MLL interaction, wild-type MLL peptide. Fluorescence polarization, fluorescein-MLL peptide displacement from menin. FP activity change, % at 61.4 µM. 290,000 tested, under 10 active. AID 1766; inconclusive = falling polarisation curve, or a change in total fluorescence; inactive = total fluorescence flat and polarisation flat or rising; no compound was filed as active; the % refers to the polarisation; negative = inhibition;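 further: % of control where 0% means no effect; inhibitors lower the polarisation; unlabelled MLL peptide was the positive control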
# TRPV1 potentiator: human TRPV1 potentiation. Q8NER1. TRPV1-expressing cells, Fluo-8 calcium influx, capsaicin EC20 potentiation; host cell line not named in the record; control for the full effect not named in the record. potentiation, % at 8.33 µM. actives 0.02% (n = 320,000). AID 540277; active means potentiation above 80%; inconclusive means 30% to 80%; inactive means below 30%; further: 0% is about no effect
#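 Cells expressing TRPV1 were dye-loaded with Fluo-8 and read kinetically: 10 s baseline, 3 min after compound (agonist portion), then 2 min after EC20 capsaicin (allosteric enhancer portion). Calcium-bound dye fluorescence at 480/520 nm.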
# Sfp PPTase inh: blocks B. subtilis Sfp PPTase activity; Q9F4F7; Biochemical Sfp PPTase activity, qHTS; Potency, µM, without a hit: max response, negative = inhibition, actives largely listed as inhibitors; actives 3.5% (n = 310,000); active means well fitted inhibition curve with a large enough effect; inconclusive means small, poorly fitted or top-dose-only effect, or another doubt; inactive means no such curve, though single readings can be large or run the other way;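 further: the enzyme is Sfp with the accession as filed and its product quenches rhodamine fluorescence; potency means the concentration at half of the fitted maximal effect; 0% = enzyme reaction without inhibitor and -100% = no enzyme wells; top concentration of the series not given in the record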
#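 Compounds were incubated with enzyme (final 15 nM) for 15 min at room temperature before substrate addition started the reaction. Fluorescence at 525 nm excitation, 598 nm emission was recorded immediately and after 30 minutes.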
# PINK1 expr mod: PINK1 expression modulation | PINK1 immunofluorescence, high-content cytometry, 24 h | Potency, µM (top dose mostly 76.6 µM), inactives show top-dose activation (PINK1 increase), actives largely listed as activators | actives 0.2% (n = 410,000) | AID 624263; active = well fitted activation curve with a large enough effect; inconclusive = small, poorly fitted or top-dose-only effect; inactive = flat fitted curve, though single readings scatter; cell line not stated here;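 further: potency means the concentration at half of the fitted maximal effect; % of control where 0% means no effect; nearly all actives have a fitted effect of over 65% in size; a mitochondrial uncoupler was the plate control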
#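 PINK1 protein level read as immunofluorescence by microplate cytometer in a fixed, stained stable cell line after 24 h exposure to five compound concentrations, with CCCP as control.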
# ClpP mod: qHTS Assay for Activators of ClpP. ATP-dependent Clp protease proteolytic subunit (Bacillus subtilis (strain 168)), P80244. purified B. subtilis ClpP, FRET peptide cleavage, 20 min. Potency, µM (highest dose often 57.5 µM), for inactives: at the highest dose activity change, negative = active. actives 1.9% (n = 340,000); active = well fitted falling curve with a large enough effect; inconclusive = small, poorly fitted or top-dose-only effect; inactive = no such curve, though single readings can be large or run the other way; further: potency means the concentration at half of the fitted maximal effect; the source files actives as falling curves though it sought activators and does not explain the sign; nearly all actives have a fitted effect of over 65% in size; many hits overshoot -100%
# Target sequence (P80244 whole entry, looked up): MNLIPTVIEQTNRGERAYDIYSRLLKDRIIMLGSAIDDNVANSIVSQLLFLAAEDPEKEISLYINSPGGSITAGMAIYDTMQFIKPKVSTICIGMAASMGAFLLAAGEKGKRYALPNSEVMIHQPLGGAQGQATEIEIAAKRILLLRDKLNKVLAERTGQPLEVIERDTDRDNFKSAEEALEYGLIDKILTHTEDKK
#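 ClpP 10 microg/mL final, pH 8 Tris/KCl buffer with BSA, glycerol, Tween-20; compound pinned in; FRET-FV substrate; RT 20 min; Ex320/Em430; ΔFRET vs ADEP 5.8 microM, DMSO, no enzyme.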
# TRPML1 ag: activates the human TRPML1 channel; TRPML1-expressing cells, Ca2+ dye fluorescence, FDSS; host cell line not named in the record; reference of the full effect not given here; AID 624414; Q9GZU1; actives 0.12% (n = 410,000); activation, % (test concentration not listed); in the data active = activation above about 50%; inconclusive = about 30% to 50%; inactive = below about 30%; further: 0% is about no effect; the text of the record puts the active cut at 80%
# Target sequence (Q9GZU1 whole entry, looked up): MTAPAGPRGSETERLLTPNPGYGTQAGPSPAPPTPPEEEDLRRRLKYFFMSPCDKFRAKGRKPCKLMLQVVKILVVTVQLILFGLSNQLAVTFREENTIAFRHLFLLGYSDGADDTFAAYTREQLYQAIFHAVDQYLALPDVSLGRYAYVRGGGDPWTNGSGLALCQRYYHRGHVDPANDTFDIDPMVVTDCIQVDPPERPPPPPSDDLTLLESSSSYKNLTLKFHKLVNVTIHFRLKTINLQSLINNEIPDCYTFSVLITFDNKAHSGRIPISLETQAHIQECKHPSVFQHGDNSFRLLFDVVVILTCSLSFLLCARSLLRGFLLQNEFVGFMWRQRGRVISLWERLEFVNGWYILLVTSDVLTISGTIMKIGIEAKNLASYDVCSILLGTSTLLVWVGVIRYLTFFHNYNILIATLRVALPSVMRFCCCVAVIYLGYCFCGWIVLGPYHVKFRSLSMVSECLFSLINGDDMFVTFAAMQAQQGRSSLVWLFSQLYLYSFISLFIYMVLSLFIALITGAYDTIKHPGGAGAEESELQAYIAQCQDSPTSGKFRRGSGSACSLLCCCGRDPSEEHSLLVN
#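 Tetracycline-induced TRPML1-DL cells are seeded and incubated overnight before loading with a no-wash Ca2+ dye and quencher. Agonist activity is taken from the 110 s fluorescence read following compound pin-transfer on an FDSS, before EC80 54-4 challenge.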
# TRPML1 blocker: human mucolipin-1 channel inhibition. Q9GZU1. TRPML1-inducible cells, Ca2+ dye fluorescence, FDSS; hits give low values; inhibition of EC80 agonist-evoked calcium signal. activity change, negative = inhibition, % (test concentration not listed). actives 0.02% (n = 390,000); in the data active means activity change below about -50%; inconclusive means about -30% to -50%; inactive means above about -30%;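 further: stimulus is agonist 54-4 at its EC80 concentration; on the % scale 0 is the no-effect control and ±100 the full control effect; compound concentration not given in the record; the text of the record puts the active cut at -80%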
#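 Tet-induced TRPML1-DL cells loaded with Ca8 no-wash calcium dye were read kinetically on FDSS. Compound addition was followed by EC80 agonist 54-4 (4 uM final); inhibition was read over 110 s.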
# Active calls of the source: *; u = inconclusive; x = no result given; & = joins results of further samples; [ ] = dose if it differs, or a comment.
SMILES,Menin MLL FP FL,TRPV1 potentiator,Sfp PPTase inh,PINK1 expr mod,ClpP mod,TRPML1 ag,TRPML1 blocker
C=CCSc1nnc(NC(=O)c2cccc(S(=O)(=O)N(C)c3ccccc3)c2)s1,2.4,-5,14%,2.6%,-4.8%,1.5,-1
CCc1nc2cc([N+](=O)[O-])c([N+](=O)[O-])cc2[nH]1,2.7,-10,-15%,0.6%,1.1%,1.0,16
COc1ccc(C2NC(=S)NC3=C2CCc2cc(OC)ccc23)cc1 (configuration not stated),2.6,9,-11%,-5.7%[38.3 µM],-23%,1.0,9
CCCC(C)NS(=O)(=O)c1ccccc1 (configuration not stated),0.6,5,0%,x,-4.4%,-0.3,3
CCCn1c(N)c(C(=O)CN(C)CC(=O)Nc2ccccc2C(F)(F)F)c(=O)[nH]c1=O,x,1,x,1.1%,0.3%,-1.3,10
CC(C)Cn1cnc2c(SCc3ccccc3)nc(N)nc21,x,x,x,3.9%,x,8.3,-3
COC(=O)c1c(C)noc1-c1ccc(Cl)cc1,3.9,23,-8%,5.5%,2.9%,-0.9,19
COc1ccc(Sc2nc(-c3ccccc3)ncc2C(=O)O)cc1,-0.3,1,23%,-1.1%,x,0.6,-16
CCOC(=O)c1cc(=O)[nH]c2ccccc12,-0.3,0,12%,0.5%,x,-0.5,-6
COc1cc2nc(SCc3ccc(Cl)cc3Cl)n(Cc3cccs3)c(=N)c2cc1OC,0.5,29,5%,6.8%,u,-0.6,5

# Structures shown so far containing a halogen:
SMILES,Menin MLL FP FL,TRPV1 potentiator,Sfp PPTase inh,PINK1 expr mod,ClpP mod,TRPML1 ag,TRPML1 blocker
CCCn1c(N)c(C(=O)CN(C)CC(=O)Nc2ccccc2C(F)(F)F)c(=O)[nH]c1=O,x,1,x,1.1%,0.3%,-1.3,10
COC(=O)c1c(C)noc1-c1ccc(Cl)cc1,3.9,23,-8%,5.5%,2.9%,-0.9,19
COc1cc2nc(SCc3ccc(Cl)cc3Cl)n(Cc3cccs3)c(=N)c2cc1OC,0.5,29,5%,6.8%,u,-0.6,5

# The listing continues:
SMILES,Menin MLL FP FL,TRPV1 potentiator,Sfp PPTase inh,PINK1 expr mod,ClpP mod,TRPML1 ag,TRPML1 blocker
CCCCN(C(=O)c1cc(=O)[nH]c2ccccc12)c1c(N)n(CCCC)c(=O)[nH]c1=O,-4.7,1,4%,-1.4%,-13%,0.2,-6
O=C(Nc1nc2ccc(SC(F)F)cc2s1)c1ccc2c(c1)S(=O)(=O)c1ccccc1C2=O,5.5,u,13%,x,x,x,x
O=C(CSc1nc(-c2cccs2)cc(C(F)(F)F)n1)Nc1ccccc1Cl,x,x,x,8.4%,-16%,-0.8,16
Cc1ccc(C2(C(F)(F)F)NC(=O)N3C(=C2C#N)Nc2ccccc23)cc1 (configuration not stated),3.0,-25,13%,0.7%[38.3 µM],u,-0.4,1
O=[N+]([O-])c1ccc(-c2nnc(-c3ccccc3)c(NCCCO)n2)cc1,8.1,-4,7%,1.9%,-1.3%,-0.7,16
Cc1ccc(-n2ncc(C(=O)N3CCC(c4ccccc4)C3)c2C2CCN(C(=O)OC(C)(C)C)CC2)cc1 (configuration not stated),x,x,x,-0.2%,-1.2%,-0.3,46
O=C(Nc1ccc(F)cc1)NC1(C(=O)NCc2ccco2)CCCCC1,-1.0,-6,2%,u,0.3%,-0.7,-10
Nc1nc(-c2ccccc2)[nH]c(=O)c1N=O,-4.9,-22,u,3.6%,0.9%,1.6,-22
CC1CCc2c(sc(NC(=O)CSc3nc(N)cc(=O)[nH]3)c2C(N)=O)C1 (configuration not stated),x,18,x,7.3%,-0.3%,-0.2,14
O=C(COC(=O)COc1ccccc1)NCc1ccc2c(c1)OCO2,x,x,x,0.4%,1.4%,-0.1,-9
CCOC(=O)C1CCCN(Cc2sccc2C)C1 (configuration not stated),0.2,-12,-27%,3.9%[38.3 µM],-1.5%,-0.4,-1
Cc1nn(Cc2ccccc2Cl)c2sc(C(=O)NCCCn3ccnc3)cc12,-0.5,-30,0%,-3.3%,-14%,-0.7,23
COc1ccc(CN2C3CCC2CC(NC(=O)c2cccc(F)c2)C3)cc1 (configuration not stated),-3.8,-1,11%,-1.4%,2.2%,0.0,3
OCC[C@@H]1C[C@@H](O)[C@H](O)[C@]2(OCc3ccccc32)O1,-0.8,u,-1%,0.6%,-0.3%,-0.5,-9
CCOC(=O)CC(=O)Nc1cc(Cl)ccc1O,-2.6,21,13%,1.0%,13%,-0.7,-5
O=C(C1=C(O)C(=O)N(CCN2CCOCC2)C1c1cccnc1)c1cc2ccccc2o1 (configuration not stated),1.2,9,-2%,12%[38.3 µM],-2.1%,0.0,0
COc1ccc(-c2nc(CS(=O)(=O)CC(=O)NCCc3ccc(C)cc3)c(C)o2)cc1,x,1,3%,1.0%&-0.9%,-5.9%,1.1&-0.8,-2&2
O=C(CCN1C(=O)/C(=C/c2cccs2)SC1=S)NNC(=O)c1cccc(O)c1,u,9,-22%,u,-0.2%,3.5,19
Cc1c(N=CN2CCOCC2)c(=O)n(C)c(=O)n1C,9.5,-5,11%,-1.5%,-13%,-0.4,30
CCn1c(SCC(=O)O)nnc1-c1cc2c(C)nn(-c3ccccc3)c2s1,1.1,27,-12%,6.9%,-27%,-0.3,-16
CCN(C(=O)CSc1nc(-c2ccc(C(C)C)cc2)no1)c1ccccc1,x,x,x,19%,-5.4%,1.7,18
CCOC(=O)c1c(N)sc(C(=O)N2CCCC(C(N)=O)C2)c1C (configuration not stated),x,x,x,1.4%,-1.0%,-1.0,6
Fc1ccc(NC(=S)N2CCN(C/C=C/c3ccccc3)CC2)c(F)c1,-3.8,2,2%,2.8%,-1.8%,1.1,3
COCc1[nH]nc2c1C1(CCC3(CC1)OCCO3)C(C#N)=C(N)O2,5.0,-5,5%,-1.5%,-0.4%,1.0,-23
COc1ccccc1NC(=O)CSc1nc2ccccc2c2nc(-c3ccccc3)nn12,x,x,x,0.3%,0.3%,0.2,-13
O=C(C1CCOCC1)N1CCCC(N2CCN(c3cccc(Cl)c3)CC2)C1 (configuration not stated),x,21,9%,-1.1%,1.7%,-0.9,1
CCOc1ccc(NC(=O)CSc2ncc3c(n2)-c2cc(Cl)ccc2N(C)S3(=O)=O)cc1,x,x,x,2.9%,11%,1.4,-23
Cc1cccc(Nc2nc(N3CCN(C)CC3)nc(N)c2[N+](=O)[O-])c1,5.9,5,10%,22%,-14%,-0.5,-14
Cc1ccc(NC(=O)COC(=O)c2ccc3c(c2)OCCO3)cc1S(=O)(=O)N1CCOCC1,-5.0,17,17%,1.1%,x,0.2,17
CC(=O)Nc1cccc(-n2nnc(SCC(=O)Nc3ccc(F)c(Cl)c3)n2)c1,-0.8,9,-21%,-0.5%,x,0.5,-20
CCCS(=O)(=O)NC(=O)C1(C)CCCN(C(=O)c2ccc(C(=O)OC)cc2)C1 (configuration not stated),x,x,x,4.2%,0.7%,-0.1,x
CCN1CCC(O)(C(C(=O)OC)c2ccccc2)CC1 (configuration not stated),x,x,x,-1.3%,x,-0.7,9
C=C1C=C(C(F)F)n2ncc(C(=O)NCc3ccccc3)c2N1,x,x,x,0.0%,-1.2%,-0.8,x
CCCCCCCCN1C(=O)[C@H](CC(=O)NCc2cccc(C(F)(F)F)c2)C[C@@]2(C(=O)OC)CCCCC=C12,x,x,x,4.6%,-1.6%,1.8,x
CCOc1cc(/C=C2\N=C(C)OC2=O)cc(Cl)c1OCC(=O)OC,x,x,x,3.2%,x,-0.1,-2
C#CCOCCOCCOCCNc1nc(N2CCN(C(=O)[C@H]([C@@H](C)O)n3cc(CCCCN)nn3)CC2)nc(N2CCN(C(=O)[C@H](Cc3ccc(O)cc3)n3cc(CCO)nn3)CC2)n1,-2.4,-9,u,1.3%,-0.2%,-0.3,17
CCN(CC)S(=O)(=O)c1ccc(NC(=O)COC(=O)c2ccc(-n3nc(C)cc3C)cc2)cc1,2.9,u,20%,7.3%[38.3 µM],-15%,2.8,31
COc1ccc(CC(=O)NCc2n[nH]c(=S)n2C)cc1,0.7,3,-26%,-0.3%,-0.7%,-0.2,10
Cc1cc(Br)ccc1SCC(=O)OCC(=O)N1CCN(C(=O)c2ccco2)CC1,u,-7,u,0.7%,-1.1%,-0.2,2
CCc1ccc(-c2[nH]c3c(c2-c2sc(C)c(C(=O)OC)c2O)c(=O)n(C)c(=O)n3C)cc1,x,x,x,2.2%,-0.4%,1.8,10
O=C(Nn1cnnc1)c1ccc(Br)s1,1.5,-4,23%,1.8%,-6.3%,0.3,87
O=C(O)c1ccc(C(=O)C(=O)c2ccccc2)cc1,-3.7,2,22%,1.4%,x,-0.2,-3
CSc1ncccc1C(=O)OCC(=O)Nc1ccc(Cl)cn1,x,x,x,11%,0.9%,6.6,-5
CCOC(=O)N1CCN(C(=O)C[C@@H]2C[C@@]3(C(=O)OCC)CCC=C3N(Cc3ccc4c(c3)OCO4)C2=O)CC1,x,x,x,0.2%,2.0%,-1.1,x
COc1cccc(CC(=O)Nc2cc(S(=O)(=O)N3CCCCC3)ccc2C)c1,x,8,x,2.0%,1.7%,0.2,-7
COc1ccc(OC)c(C(C)NC(=O)C(C)Cc2ccccc2)c1 (configuration not stated),-1.4,4,5%,-0.2%,x,0.2,0
Cc1ccnc(NC(=O)c2ccc(NS(=O)(=O)/C=C/c3ccccc3)cc2)c1,x,0,x,1.6%,28µM*,0.7,16
CN(CC(=O)NCCN1CCCCCC1)S(=O)(=O)c1cccc2nsnc12,3.4,-7,7%,-1.8%,-2.3%,0.5,-2
COc1cccc(C(=O)Nc2ccc3nc(N4CCOCC4)cc(C)c3c2)c1,-1.6,-2,5%,2.5%,-10%,-0.1,5
CC1CCN(C2=NC(=O)/C(=C/c3ccccc3F)S2)CC1,-5.5,-4,0%,4.6%,-0.9%,-0.6,-5

# Additional records
SMILES,Menin MLL FP FL,TRPV1 potentiator,Sfp PPTase inh,PINK1 expr mod,ClpP mod,TRPML1 ag,TRPML1 blocker
Cc1ccc(C(=O)N/C(=C\c2ccc(-c3cccc([N+](=O)[O-])c3)o2)C(=O)NCCCN2CCOCC2)cc1,-4.4,2,-2%,-2.1%,-0.1%,-0.3,41
O=C(NCc1cccnc1)C(=O)NCC(c1ccco1)N1CCOCC1 (configuration not stated),-0.8,-7,16%,0.0%,-0.7%,x,x
COCCOC(=O)C1=C(N)Oc2c(oc(CO)cc2=O)C1c1ccccc1F (configuration not stated),0.7,-1,2%,2.9%[38.3 µM],-2.5%,0.5,-1
Cc1oc(/N=C/c2ccc(Cl)cc2)c(C#N)c1C,u,-11,6%,4.0%[38.3 µM],35%,-0.5,32

# This is a random part of the collection (roughly 4.4% active in at least one column).
